Rce1 inhib = yeast Rce1p protease inhibitors, primary screen, biochemical, fluorescence, cell-free homogeneous; CAAX prenyl protease 2 (Saccharomyces cerevisiae (strain ATCC 204508 / S288c)), Q03530; yeast membranes, quenched prenylated peptide cleavage fluorescence; 290,000 tested, 0.27% active; calls only;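 active = fall in fluorescence gain of 50% or more versus controls, with final raw signal at or below 3038400; inconclusive = same 50% fall but final raw signal above 3038400; inactive = fall in fluorescence gain under 50%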;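 note: plate controls were neutral control wells for no effect and wells lacking membranes for full effect; tested at 10 µM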
Target sequence (Q03530 whole entry, looked up): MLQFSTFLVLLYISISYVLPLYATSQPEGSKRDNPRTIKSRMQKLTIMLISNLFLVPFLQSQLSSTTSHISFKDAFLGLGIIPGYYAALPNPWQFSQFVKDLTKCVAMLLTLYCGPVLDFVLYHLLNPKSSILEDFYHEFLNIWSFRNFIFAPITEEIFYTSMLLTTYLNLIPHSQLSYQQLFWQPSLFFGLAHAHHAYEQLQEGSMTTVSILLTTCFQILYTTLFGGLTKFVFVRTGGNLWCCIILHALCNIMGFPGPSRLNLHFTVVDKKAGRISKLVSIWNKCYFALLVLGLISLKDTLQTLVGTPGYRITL
MT1-MMP act inh = blockers of MT1-MMP proenzyme processing, primary screen, HT1080 RFP-PRO-GFP cells, GFP/RFP fluorescence; GFP/RFP ratio fluorescence, overnight; percent of plate control window, DMSO zero; AID 651647, 2012; Matrix metalloproteinase-14 (Homo sapiens), P50281; 360,000 tested, 0.061% active; GFP/RFP ratio change, % at 20 µM;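 active = GFP/RFP ratio change of at least 30% with cell ATP level not reduced by more than half and red fluorescence within 50% of control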; note: strong numbers were not always called active
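Assay system – RFP-PRO-GFP reporter HT1080 cells · Compound dosing – single dose of 20 µM compound, 1% DMSO final · Incubation – overnight compound exposure at 37 °C · Measure – GFP/RFP fluorescence ratio · Benchmarks – DMSO wells and RFP-L50D-GFP cells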
CSC inhib = cancer stem cell viability inhibitors, primary screen, luminescence | cancer stem cell-like cells viability | inhibition, % at 7.5 µM | 300,000 tested, 1.1% active | AID 2717, 2010;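 active = mean at 75% or more and at least half the replicates too; inconclusive = mean and replicates disagree; tested in HMLE shEcad cells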;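 note: 0% = median of negative and 100% = median of positive control wells; the first replicate is given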
PABP FP inh = PABP poly(A) RNA binding inhibitors, primary screen, biochemical, fluorescence polarization, uHTS. inhibition, % at 35 µM. 290,000 tested, 1% active. AID 2014, 2009;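 active = 50% or more with normal probe brightness, or confirmed in later tests; inconclusive = above 50% with abnormal brightness, or retests that disagree; inactive = below 50% or failed in later tests; about a fifth of its hits are not listed in these tables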;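 note: calls also rest on retests at 20 µM and on dose response follow-up; controls were probe without protein and protein plus probe with vehicle; some compounds called inactive have numbers as strong as hits; many hits fall short of the cut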
UUG fidelity = modulators of yeast start codon fidelity, primary screen, whole organism, S. cerevisiae, single point, plate reader; activity score, % at 18.7 µM; AID 602363, 2012; 350,000 tested, 0.13% active; S. cerevisiae UUG-firefly luciferase reporter, luminescence/redox ratio;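 active = replicate mean at a twofold rise or more, about +100% in these data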;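 note: firefly luciferase made from a UUG start codon reports start codon fidelity; reporter light over untreated wells divided by growth signal over untreated wells; some hits fall short of that in this replicate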
Env fusion inh = inhibitors of HIV-1 Env-driven cell-cell fusion, primary screen, HeLa-JRFL effector, CEM21 target cells, luciferase; inhibition, % at 12.3 µM; 360,000 tested, 1.1% active;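 active = mean replicate inhibition score of at least 50 and every replicate individually at or above 50; inconclusive = only one of the two criteria met; inactive = mean below 50 and not all replicates reaching 50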;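 note: 0% = plate neutral controls and 100% = maraviroc near 300 nM; one replicate is shown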
eIF4H inh = human eIF4H binding inhibitors, primary screen, translation initiation inhibitor project, biochemical, uHTS, fluorescence polarization; Eukaryotic translation initiation factor 4H (Homo sapiens), Q15056; eIF4H fluorescence polarization binding assay; inhibition, % at 35 µM; 290,000 tested, 0.94% active; AID 2012, 2009;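 active = 50% or more with normal probe brightness, or confirmed in later tests; inconclusive = above 50% with abnormal brightness, or retests that disagree; inactive = below 50% or failed in later tests; about a fifth of its hits are not listed in these tables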;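 note: calls also rest on retests at 20 µM and on dose response follow-up; 0% = protein and probe with vehicle and 100% = probe without protein; strong numbers were not always called active; many hits fall short of the cut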
PABP FP inh retest = also measured in PABP FP inh; calls as there; inhibition, %; compound at 20 µM; confirmation repeats;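 mean of two retest wells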
MT1-MMP act inh RFP = second read-out of MT1-MMP act inh, no call of its own (marks repeat the call); RFP signal change, %; measured here: RFP expression control read;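 0 = vehicle wells; hits needed this value within 50% of zero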
An asterisk follows results filed as active; i = inactive; ? = inconclusive; . = no result given; + = active, no number.

SMILES	Rce1 inhib	MT1-MMP act inh	MT1-MMP act inh RFP	CSC inhib	PABP FP inh	UUG fidelity	Env fusion inh	eIF4H inh	others
Cc1cccc(NC(=O)[C@@H](NC(=O)N2C[C@H]3C[C@@H](C2)c2cccc(=O)n2C3)C(C)C)c1	i	1	0	-9	-3	-12	.	-14
C=CCn1c(O)c(C(CC)=Nc2ccc(C(=O)O)cc2)c(=O)[nH]c1=O	i	-3	4	-6	0	.	9	20
CSc1ncc(/C=C2/C(=O)NC(=O)N(c3ccc(C(C)C)cc3)C2=O)cn1	i	-2	0	-12	1	-24	-2	3
CCCn1c(C)c(C(=O)c2cccc3ccccc23)c2ccccc21	.	-2	-10	53	.	-5	7	.
Oc1cc2c(cc1O)[C@H]1c3ccccc3CN[C@@H]1CC2	i	.	.	1	16	.	.	-4
C[N+](C)(C)Cc1ccccc1	i	2	6	-3	8	-8	-9	-6
CC1=NN(c2ccccc2)C(=O)/C1=C/c1c(O)[nH]c(=S)[nH]c1=O	i	4	2	0	-1	.	.	12
COc1ccccc1N1CCN(Cc2ccc(Br)cc2)CC1	i	2	-5	5	-12	-12	-9	-3
O=c1[nH]c(O)c(/C=C2/C=CC(c3cc(Cl)ccc3Cl)=N2)c(=O)[nH]1	i	-41	-9	38	17	-18	-34	47
O=C1NCN(c2ccccc2)C12CCN(C(c1cccs1)c1nnnn1C1CCCCC1)CC2 (stereo not given)	.	0	-6	.	.	-2	-85	.
CN1C(=O)NC(=O)C2(CCCC2)C1=O	.	-1	2	.	.	0	18	.
CCN1C[C@]2(COC)CC[C@H](OC)[C@@]34C5C[C@H]6C(=O)C5[C@](O)(C[C@H]6OC)[C@@](O)(C(OC)C23)[C@@H]14 (stereo not given in full)	i	6	7	6	.	-18	.	.
CCN1CC2(COC(=O)c3ccccc3N)CCC(OC)C34C5CC6C(OC)CC(O)(C5C6OC)C(O)(C(OC)C23)C14 (stereo not given)	i	3	5	-12	2	-5	.	0
Nc1ccc(C2(c3ccc(N)cc3)CN3CCC2CC3)cc1	i	-3	-2	1	3	-38	.	-12
Cc1ccccc1C1=NCC(=S)Nc2ccc(Cl)cc21	.	5	5	4	6	1	-51	0
CN(C)c1ccc(/C=C/[N+](=O)[O-])cc1	i	3	5	8	0	.	-25	2
CCn1c(=N)n(Cc2ccccc2F)c2ccccc21	i	1	-2	0	-8	-12	-1	-1
CC(C)C1(C)N=C(c2ncccc2C(=O)O)NC1=O (stereo not given)	i	2	3	-9	3	-5	.	-3
COc1ccc2c(c1)/C(=C/c1cnc[nH]1)C(=O)N2	i	-3	-12	33	15	-11	-113	4
Cc1cc(C=C2C(=O)N(C)C(=O)N(C)C2=O)c(C)n1-c1ccccc1	i	3	7	2	-3	.	12	31

A portion taken from the entries so far, for reference:
SMILES	Rce1 inhib	MT1-MMP act inh	MT1-MMP act inh RFP	CSC inhib	PABP FP inh	UUG fidelity	Env fusion inh	eIF4H inh	others
CN(C)c1ccc(/C=C/[N+](=O)[O-])cc1	i	3	5	8	0	.	-25	2
CCn1c(=N)n(Cc2ccccc2F)c2ccccc21	i	1	-2	0	-8	-12	-1	-1
CC(C)C1(C)N=C(c2ncccc2C(=O)O)NC1=O (stereo not given)	i	2	3	-9	3	-5	.	-3
COc1ccc2c(c1)/C(=C/c1cnc[nH]1)C(=O)N2	i	-3	-12	33	15	-11	-113	4
Cc1cc(C=C2C(=O)N(C)C(=O)N(C)C2=O)c(C)n1-c1ccccc1	i	3	7	2	-3	.	12	31

(further entries)
SMILES	Rce1 inhib	MT1-MMP act inh	MT1-MMP act inh RFP	CSC inhib	PABP FP inh	UUG fidelity	Env fusion inh	eIF4H inh	others
O=C1Nc2ccccc2/C1=C/c1cnc[nH]1	i	-9	-8	.	-6	.	.	-11
CC(Cc1ccccc1Sc1ccccc1O)N(C)C (stereo not given)	i	-7	-6	.	1	-2	.	-9
CC#CP(=O)(OC)C(O)(CF)c1ccccc1 (stereo not given)	i	4	8	-8	2	-10	-11	1
O=C1COc2ccc(C(=O)COC(=O)Cc3ccccc3)cc2N1	i	0	2	7	.	-22	-3	.
Cc1cccc(-n2c(-c3ccco3)nc3ccccc3c2=O)c1C	i	-1	-3	2	-6	.	31	-11
N#Cc1ccc(NC(=O)CN2CCCCCC2)cc1Cl	i	5	-2	5	3	5	11	-16
COc1ccc(CN2C(=O)NC(=O)/C(=C/c3cc(OC)c(OC)c(OC)c3)C2=O)cc1	i	-4	-3	-16	44*	-2	8	?	PABP FP inh retest=74*
O=S(=O)(c1cc(Cl)cc(Cl)c1)N1Cc2cc(-c3cccc(F)c3)ccc2-n2nncc2C1	.	3	-2	.	.	-9	-8	.
Clc1ccc(N2CC2c2ccncc2)cc1 (stereo not given)	i	-5	0	.	-4	-15	-12	-8
CCCN(CCC)C1Cc2cc(OC)c(OC)cc2C1	i	0	3	-14	.	-7	-25	.
N#CC(c1ccccc1)N1CCOCC1 (stereo not given)	i	2	0	0	-10	.	-3	-6
O=[N+]([O-])c1ccc2c(c1)C(c1ccccc1)=NCCN2	i	-4	0	-7	-3	-9	23	0
COc1ccc(CCNCc2cccc(C(F)(F)F)c2)cc1OC	i	-1	2	-16	-8	.	2	1
CC1=CC(=C2C(=O)NC(=O)NC2=O)C=C(C(F)(F)F)N1Cc1ccccc1	i	-1	-2	.	13	.	-33	-1
COc1cc(/C=C2/C(=O)NC(=O)N(c3ccc(C)cc3)C2=O)cc(OC)c1OC	i	6	2	-6	-3	-6	4	28
OC(CNC1CCCCCCC1)c1ccccc1 (stereo not given)	i	.	.	26	-1	.	.	3
CCC(=NCCN1CCOCC1)c1c(O)n(C2CCCCC2)c(=O)[nH]c1=O	i	0	4	2	10	.	3	-2
O=C1NC(=O)N(Cc2ccccc2Cl)C(=O)/C1=C/c1cccs1	i	11	7	35	-15	-7	-177	20
NC1C2CN3CCN(C2)CC1(c1ccccc1)C3 (stereo not given)	i	-1	3	2	-2	1	11	-6
O=C1NC(=O)N(c2ccccc2)C(=O)/C1=C\c1ccc([N+](=O)[O-])s1	i	.	.	-4	?	.	13	?
COC[C@]12CN(C)C3C4[C@H](OC)[C@H]1C3([C@@H](OC)C[C@H]2O)[C@@H]1C[C@@]2(O)[C@H](OC(=O)c3ccccc3)[C@@H]1[C@]4(OC(C)=O)[C@@H](O)[C@@H]2OC	i	0	3	-4	.	-22	.	.
CCCN1CCC[C@@H](c2cccc(O)c2)C1	.	2	0	-16	.	-18	16	.
C[C@@H]1NCCc2cc(O)c(O)cc21	.	-4	0	-4	.	-16	-9	.
Cc1ccc(-n2c(O)c(/C=N/N3CCCCC3c3cccnc3)c(=O)[nH]c2=S)cc1 (stereo not given)	i	-9	2	-7	3	.	7	0
CCOC(=O)c1c(-n2c(C)cc(C=C3C(=O)NC(=O)NC3=O)c2C)sc2c1CCCC2	i	0	-2	.	?	1	-19	?
Cc1ccc(-c2nc3ccc(C)cn3c2CC(=O)N(C)C)cc1	+	2	3	-2	.	-3	.	.
C[C@]12CCC3[C@@H](CC[C@@H]4C[C@H](O)CC[C@]34C)[C@@H]1CCC2=O (stereo not given in full)	.	1	0	-5	.	0	0	.
CC1CCCN(C(=O)c2ccc(N3CC4CC(C3)c3cccc(=O)n3C4)c([N+](=O)[O-])c2)C1 (stereo not given)	i	-1	3	12	5	.	-4	-11
O=C(c1ccccc1)c1cn(CC(=O)N2CCCc3ccccc32)c2ccccc12	i	4	-1	-4	-4	-13	37	-6
Nc1ccc(Cl)cc1C(=O)c1ccccc1Cl	i	0	4	6	18	.	-11	-11
COc1ccccc1CCNC1CCCC(C)C1 (stereo not given)	i	3	1	-1	-10	.	1	-2
Cc1ccc(C2N(c3ccccn3)C(=O)C3CCCN32)o1 (stereo not given)	i	-1	2	17	-7	-28	-5	-3
C=CCn1c(O)c(C(C)=NC(C)c2ccccc2)c(=O)[nH]c1=O (stereo not given)	i	8	-1	3	-1	-9	6	2
O=C1NC(=O)[C@]2(Cc3ccccc3N3CCN(c4ccccc4)CC32)C(=O)N1c1ccccc1 (stereo not given in full)	i	-10	1	-10	44	-9	-51	14
CCOc1ccccc1N1C(=O)NC(=O)C(CCc2ccncc2)(CCc2ccncc2)C1=O	i	3	7	9	-13	-12	.	-3
N#CSCC(=O)N1c2ccccc2CCc2ccccc21	i	-14	-10	16	7	-9	1	-15
COC(=O)C(O)(c1ccc(N(C)S(=O)(=O)c2ccccc2)cc1)C(F)(F)F (stereo not given)	i	0	0	4	4	2	-11	7
COc1ccc(C(C)=O)cc1CC(C(=O)c1ccc(F)cc1)N(C)C (stereo not given)	i	-4	4	-3	-2	.	-16	-5
COC(=O)c1c(C)n(Cc2ccc3c(c2)OCO3)c2ccc(O)cc12	i	-2	-17	2	7	-26	24	1
CC(N)Cc1c[nH]c2ccc(Cl)cc12 (stereo not given)	.	-1	1	-4	.	-9	-38	.
Cc1ccc(/C=C2\C(=O)NC(=O)N(CC3CCCO3)C2=O)s1 (stereo not given)	i	3	4	-2	?	-7	-9	?
CCOC(=O)[C@]12Cc3cc(N(C)C)ccc3[C@H]1N(Cc1ccccc1)C(=O)c1ccccc12	.	-12	-9	.	.	9	17	.
O=C(O)Cn1cc(C=C2C(=O)NC(=O)NC2=O)c2ccccc21	i	-6	7	-15	65*	-2	-7	?	PABP FP inh retest=52*
C1CCC2CCCCC2C1 (stereo not given)	.	0	9	-5	.	-10	.	.
O=[N+]([O-])c1[nH]cnc1Br	.	2	1	.	.	4	-12	.
CN(c1ccc(OCC(=O)N2CCN(C/C=C/c3ccccc3)CC2)cc1)S(=O)(=O)c1cccs1	i	-5	-25	-8	0	3	39	-4
O=[N+]([O-])NC1=NCCN1Cc1ccc(Cl)nc1	i	4	0	-5	-1	-20	27	9
c1cc2c(cc1[C@H]1OC[C@H]3[C@@H]1CO[C@H]3c1ccc3c(c1)OCO3)OCO2	.	3	-4	.	.	-10	7	.
Cn1cccc1CNCCc1ccccc1	i	.	.	-2	-3	.	.	-3
COc1cccc(O)c1CN1CCCC(C(=O)c2ccccc2SC)C1 (stereo not given)	i	-3	-1	25	-6	.	-1	-6

Following part
SMILES	Rce1 inhib	MT1-MMP act inh	MT1-MMP act inh RFP	CSC inhib	PABP FP inh	UUG fidelity	Env fusion inh	eIF4H inh	others
CC/C(=N\NC(=O)c1ccccc1O)c1c(O)n(Cc2ccccc2)c(=O)[nH]c1=O	i	-60	-3	7	24	.	24	43
COC(=O)C1=C(c2ccc(-c3ccccc3)c(F)c2)C[C@@H]2CC[C@H]1N2C(=O)NCc1cccc2ccccc12	.	-6	-5	16	.	-19	-60	.
CN=C1CN(O)C(c2ccccc2)c2cc(Cl)ccc2N1 (stereo not given)	.	-1	3	.	.	-8	-10	.
CC1=C(/C=C/c2ccccc2)CCN(C)C1	i	-3	3	.	6	-9	-5	-12
C#CCN1CCN(c2cccc(C(F)(F)F)c2)CC1	i	2	7	2	9	.	-8	-4
Cc1cccc(-n2c(O)c(C=NCCN3CCCCC3)c(=O)[nH]c2=O)c1	i	-3	0	-1	-8	-8	3	2

Source: PubChem (several laboratories)

Some of the compounds tested (hit frequency here may not be typical).
